Vif TR-FRET – HIV-1 Vif–A3G interaction blockers – biochemical, TR-FRET, GST-Vif 1-94, biotin-A3G peptide, dose response retest, primary screen (AID 1117319). TR-FRET GST-Vif / biotin-A3G peptide binding; higher % means a stronger effect; test concentration not given here; strong numbers were not always called active. inhibition, %; hits with a dose series show IC50 in µM. 260,000 compounds, 0.57% hits;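 active = above the screen mean plus three standard deviations and confirmed in dose response; inconclusive = results disagree or hit not tested in dose response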;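 note: Vif residues 1-94 fused to GST binding biotinylated APOBEC3G peptide 110-148; 0% = full assay without inhibitor and 100% = GST in place of GST-Vif; retest series ran down from 100 µM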
HNF4A DNA FP – change in binding of human HNF4 alpha to DNA | HNF4a-FITC DNA binding, fluorescence polarization, 1 h | activity change, % at 10 µM | 360,000 compounds, 0.3% hits; in the data active = activity change above about 30%, passing the limit was not always enough;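 note: controls were the assay level and a saturating level of protein; the project sought stronger binding though the title names inhibitors; some compounds called inactive have numbers as strong as hits; positive values seem to mean higher polarization but the record does not say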
Target sequence (P41235 whole entry, looked up): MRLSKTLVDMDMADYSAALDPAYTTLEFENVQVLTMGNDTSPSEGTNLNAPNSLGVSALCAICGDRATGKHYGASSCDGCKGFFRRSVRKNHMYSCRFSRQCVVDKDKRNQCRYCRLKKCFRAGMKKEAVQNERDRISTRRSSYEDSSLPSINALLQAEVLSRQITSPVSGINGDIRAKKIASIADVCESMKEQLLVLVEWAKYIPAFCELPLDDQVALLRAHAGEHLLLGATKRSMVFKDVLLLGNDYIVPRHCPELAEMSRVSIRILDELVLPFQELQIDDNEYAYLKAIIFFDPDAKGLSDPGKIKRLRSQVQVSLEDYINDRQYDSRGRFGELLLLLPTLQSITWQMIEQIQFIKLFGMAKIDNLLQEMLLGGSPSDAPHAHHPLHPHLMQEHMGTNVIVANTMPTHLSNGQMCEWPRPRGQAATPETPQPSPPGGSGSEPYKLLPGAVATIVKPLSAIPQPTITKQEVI
FGF22 binding – shifts melting point of recombinant human FGF22; recombinant FGF22 thermal shift, SYPRO orange fluorescence; percent of sucrose octasulfate shift, DMSO zero; calls only at 9.99 µM; 340,000 compounds, 1.5% hits;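 active = melting point raised past a set limit in the mean and every replicate; inconclusive = no clear call; three in four hits are not shown here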
Target sequence (Q9HCT0 whole entry, looked up): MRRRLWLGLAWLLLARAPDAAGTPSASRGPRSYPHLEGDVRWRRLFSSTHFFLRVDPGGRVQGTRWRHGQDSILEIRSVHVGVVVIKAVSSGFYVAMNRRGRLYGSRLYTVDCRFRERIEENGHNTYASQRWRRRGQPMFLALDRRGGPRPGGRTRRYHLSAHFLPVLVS
RanGTP-Imp inh – disruptors of Ran-importin-beta complex formation – biochemical, FRET, CFP-Ran, YFP-importin-beta, homogeneous, primary screen; inhibition, % (no concentration beside the values); 300,000 compounds, 1.1% hits; cell-free CFP-Ran/YFP-importin-beta FRET ratio;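 active = most replicates above 15%; inconclusive = exactly half above 15%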;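 note: 0% = DMSO wells and 100% = Ran loaded with GDP instead of GTP; wells of about 40 µL received 100 nL stock; the first replicate is given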
UCH37 inh – blocks the human deubiquitinase UCH37; Q9Y5K5; purified proteasome/UCH37, Ub-AMC cleavage fluorescence; inhibition, % (test concentration not listed); 330,000 compounds, 0.33% hits;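 active = mean of two replicates above 20%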;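 note: 0% = compound-free wells with enzyme and 100% = wells lacking proteasome; stock transfer was 100 nL into about 20 µL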
Target sequence (Q9Y5K5 whole entry, looked up): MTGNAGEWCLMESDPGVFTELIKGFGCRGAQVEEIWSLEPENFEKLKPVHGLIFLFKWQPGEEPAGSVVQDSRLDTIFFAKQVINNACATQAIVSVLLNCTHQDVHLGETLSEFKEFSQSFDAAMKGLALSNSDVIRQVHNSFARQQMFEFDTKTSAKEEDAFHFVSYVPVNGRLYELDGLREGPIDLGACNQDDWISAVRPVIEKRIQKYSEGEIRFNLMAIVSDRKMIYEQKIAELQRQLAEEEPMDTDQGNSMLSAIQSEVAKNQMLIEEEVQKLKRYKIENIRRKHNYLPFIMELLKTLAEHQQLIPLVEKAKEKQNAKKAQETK
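System: Proteasome-associated human UCH37 deubiquitinase; Input: 0.15 nM proteasome in added enzyme buffer; Also added: Ub-AMC substrate from 1 µM stock; Incubation: 30 min compound-proteasome preincubation then 25 min substrate reaction, room temperature; Detection: fluorescence, ex 355 nm, em 460 nm; Read-out: % inhibition of Ub-AMC cleavage fluorescence; Benchmarks: no-proteasome and no-compound wells.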
MLL AF4-AF9 inh – inhibitors of human MLL-AF4/AF9 interaction; AlphaScreen, biotin-AF4 peptide binding to FLAG-AF9; P42568; inhibition, % at 10 µM; 350,000 compounds, 0.47% hits; AID 651704;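 active = every replicate reaching a set inhibition limit, whatever the replicate mean, cut at about 25% in these data; inconclusive = mean inhibition reaches that limit but some replicates miss it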;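 note: 0% = plate neutral control median and 100% = total signal loss; the record names both 10 and 1 µM as test concentration; the first replicate is given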
Ecoli growth – E. coli growth inhibition; AID 1053175; 330,000 compounds, 0.21% hits; OD600 absorbance (no concentration beside the values); Escherichia coli growth, OD600, 23 h; stronger effect = lower value;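 active = OD600 absorbance below the run mean of sample wells minus 3.6 SD, in any replicate, cut at about 0.56 in these data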;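 note: stock transfer was 300 nL into about 60 µL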
* marks the source's active call; other numbers are inactive results.

For CSc1ccccc1C(=O)C1CCCN(Cc2ccn[nH]2)C1 (stereo unspecified) the results were Vif TR-FRET 4%, HNF4A DNA FP -1.7, RanGTP-Imp inh -1.4, UCH37 inh 4.5 and Ecoli growth 0.69.
Screening O=C(CCn1c(=O)oc2ccccc21)N1CCC2(CC1)OCCO2 returned Vif TR-FRET inconclusive, HNF4A DNA FP 3.3, RanGTP-Imp inh -0.4, UCH37 inh 2.4 and Ecoli growth 0.71.
O=C1CCN(C(=O)C(Cl)Cl)N1 was read as Vif TR-FRET -4%, HNF4A DNA FP 1.1, FGF22 binding inactive, RanGTP-Imp inh 0.8, UCH37 inh 2.3, MLL AF4-AF9 inh -1.0 and Ecoli growth 0.69.
Screening O=C(c1cn(Cc2ccccc2F)c2ncccc12)C(F)(F)F returned Vif TR-FRET -7%, HNF4A DNA FP 1.8, FGF22 binding inactive, RanGTP-Imp inh 0.5, UCH37 inh 1.1, MLL AF4-AF9 inh -1.9 and Ecoli growth 0.64.
`COC(=O)C1=C(c2ccc(S(C)(=O)=O)cc2)C[C@@H]2CC[C@H]1N2C(=O)N1CCC(O)CC1` gave HNF4A DNA FP 0.5, FGF22 binding inactive, RanGTP-Imp inh 1.7, UCH37 inh 5.1, MLL AF4-AF9 inh 1.8 and Ecoli growth 0.79.
Screening COc1cc(C)c(CN2CC=C(c3ccc(F)cc3)CC2)cc1C returned HNF4A DNA FP -0.1, FGF22 binding inactive, RanGTP-Imp inh 3.7, UCH37 inh 3.5, MLL AF4-AF9 inh 2.7 and Ecoli growth 0.59.
Screening Cc1cc(C=O)c(C)n1C1CC1 returned Vif TR-FRET -1%, HNF4A DNA FP 3.2, FGF22 binding inactive, RanGTP-Imp inh 0.4, UCH37 inh 0.4, MLL AF4-AF9 inh 1.8 and Ecoli growth 0.7.
`Cc1c(N=Cc2c(O)n(C)c(=O)[nH]c2=O)c(=O)n(-c2ccccc2)n1C` gave Vif TR-FRET 5%, HNF4A DNA FP 8.2, FGF22 binding inactive, RanGTP-Imp inh 3.1, UCH37 inh 11, MLL AF4-AF9 inh -1.1 and Ecoli growth 0.64.
For CC(=O)C1(O)CCC2C3CCC4=C(Cl)C(=O)CCC4(C)C3CCC21C (stereo unspecified) the results were Vif TR-FRET -14%, HNF4A DNA FP 2.6, FGF22 binding inactive, UCH37 inh 2.6, MLL AF4-AF9 inh 2.4 and Ecoli growth 0.69.
O=C(O)COc1ccccc1 was read as HNF4A DNA FP 1.5, FGF22 binding inactive, UCH37 inh 0.7 and Ecoli growth 0.63.
CCN(CC)C(=O)c1ccc2c(c1)C1C=CCC1C(C(=O)O)N2 (stereo unspecified) was read as Vif TR-FRET 2.8µM*, HNF4A DNA FP -42, FGF22 binding inactive, RanGTP-Imp inh 0.0 and MLL AF4-AF9 inh -4.4.
CCOC(=O)[C@]12Cc3cc(C)ccc3[C@H]1N(C(C)C)C(=O)c1ccccc12 was read as HNF4A DNA FP -4.0, FGF22 binding inactive and MLL AF4-AF9 inh -2.0.
`O=C(COC(=O)Cc1ccccc1)Nc1cccnc1Cl` gave Vif TR-FRET -8%, HNF4A DNA FP -0.8, FGF22 binding inactive, RanGTP-Imp inh -1.8, UCH37 inh -0.6, MLL AF4-AF9 inh 3.7 and Ecoli growth 0.71.
For O=C1NCN(c2ccccc2)C12CCN(C(CCc1ccccc1)c1nnnn1C1CCCCC1)CC2 (stereo unspecified) the results were HNF4A DNA FP -3.5, FGF22 binding inactive and MLL AF4-AF9 inh -1.7.
COc1cc2c(cc1O)C[C@H]1NCCc3cc4c(c-2c31)OCO4 was read as Vif TR-FRET 13%, HNF4A DNA FP -11, FGF22 binding inactive, RanGTP-Imp inh -0.5, UCH37 inh -4.0 and MLL AF4-AF9 inh 12.
O=C(Cc1ccccc1F)N1CCN(CC(=O)N2CCCC2)CC1 was read as Vif TR-FRET 0%, HNF4A DNA FP 2.7, FGF22 binding inactive, UCH37 inh -1.2, MLL AF4-AF9 inh -43 and Ecoli growth 0.69.
`Cc1ccc(C2C(S(C)(=O)=O)=C(O)C(=O)N2c2ccccc2)cc1` (stereo unspecified) (tested in a mixture with another compound) gave Vif TR-FRET 0%, HNF4A DNA FP 0.4, RanGTP-Imp inh 6.6, UCH37 inh 4.2 and Ecoli growth 0.71.
CC(C)C(=O)c1cn(Cc2ccccc2C#N)c2ccccc12 was read as Vif TR-FRET 1%, HNF4A DNA FP 1.3, RanGTP-Imp inh inconclusive, UCH37 inh -5.5 and Ecoli growth 0.75.
CCN1CCN(CC(=O)c2c(C)n(Cc3ccccc3)c3ccc(OC)cc23)CC1 was read as Vif TR-FRET 1%, HNF4A DNA FP 1.3, RanGTP-Imp inh -2.4, UCH37 inh 6.1 and Ecoli growth 0.69.
CCOc1ccccc1NC(=O)N1CCC2(CC1)OCCO2 was read as HNF4A DNA FP -4.8, RanGTP-Imp inh -2.8, UCH37 inh -1.9 and Ecoli growth 0.66.
C[C@]12CCC3C(CC[C@H]4C[C@H](O)CC[C@]34C)C1C[C@@H](CCCCl)[C@@H]2O (stereo partly specified) was read as HNF4A DNA FP -2.4, FGF22 binding inactive and MLL AF4-AF9 inh -1.9.
`Cc1cnc(NC(=O)CN2CCCCC2)s1` gave HNF4A DNA FP 2.3, FGF22 binding inactive, RanGTP-Imp inh 0.9, UCH37 inh 0.4, MLL AF4-AF9 inh -2.0 and Ecoli growth 0.66.
Cc1c(C(=O)N2CCC3(CC2)OCCO3)oc2ccccc12 was read as Vif TR-FRET -1%, HNF4A DNA FP 3.1, RanGTP-Imp inh 2.9, UCH37 inh -0.2 and Ecoli growth 0.66.
Screening N#CCN1CCN(c2ccc(C(F)(F)F)cc2)CC1 returned Vif TR-FRET -3%, HNF4A DNA FP -0.3, RanGTP-Imp inh 3.8, UCH37 inh -0.3 and Ecoli growth 0.65.
For O=P(Nc1cccc(F)c1)(Oc1ccccc1F)Oc1ccccc1F the results were Vif TR-FRET -4%, HNF4A DNA FP -0.1, FGF22 binding inactive, RanGTP-Imp inh -4.4, UCH37 inh 3.8, MLL AF4-AF9 inh 0.0 and Ecoli growth 0.65.
`O=c1[nH]c(=O)n(C2CCCCCC2)c(O)c1C=NCCCN1CCOCC1` gave Vif TR-FRET 70%, HNF4A DNA FP 0.7, RanGTP-Imp inh 7.6, UCH37 inh 1.5 and Ecoli growth 0.73.
`CCN(CC)c1ccc(CNCCc2ccc(F)cc2)cc1` gave Vif TR-FRET 9%, HNF4A DNA FP -2.2, FGF22 binding inactive, RanGTP-Imp inh 1.6, UCH37 inh 3.7, MLL AF4-AF9 inh inconclusive and Ecoli growth 0.61.
COc1ccc2oc3c(c2c1)NC(=O)CN=C3c1ccccc1 was read as Vif TR-FRET -4%, HNF4A DNA FP 1.9, FGF22 binding inactive, RanGTP-Imp inh -4.3, UCH37 inh 3.5, MLL AF4-AF9 inh 0.1 and Ecoli growth 0.64.
`CCC(=NCc1ccco1)c1c(O)n(-c2ccc(C)cc2)c(=O)[nH]c1=O` gave Vif TR-FRET -3%, HNF4A DNA FP 1.5, RanGTP-Imp inh -1.0, UCH37 inh 4.0 and Ecoli growth 0.63.
Screening CC1(C)CC2(CCO1)NCCN1C(=O)CSC12 (stereo unspecified) returned Vif TR-FRET 1%, HNF4A DNA FP -2.0, RanGTP-Imp inh -5.0, UCH37 inh 3.0 and Ecoli growth 0.72.
For COc1cc(CCN)ccc1O the results were HNF4A DNA FP 1.6, FGF22 binding inactive, UCH37 inh -0.7, MLL AF4-AF9 inh -3.5 and Ecoli growth 0.67.
Screening O=C(c1ccc(Cl)cc1)C1CCCN(Cc2cccc3cccnc23)C1 (stereo unspecified) returned HNF4A DNA FP 0.9, FGF22 binding inactive, RanGTP-Imp inh 4.1, UCH37 inh 0.6, MLL AF4-AF9 inh 4.3 and Ecoli growth 0.68.
`Cc1cc(/C=C2\C(=O)NC(=O)N(c3ccc(Br)cc3)C2=O)c(C)n1-c1cc(C(=O)O)cc(C(=O)O)c1` gave HNF4A DNA FP -44, RanGTP-Imp inh 6.5 and MLL AF4-AF9 inh -0.7.
CCCCn1c(=O)c(C(=O)Nc2ccc(C)cn2)c(O)c2ccccc21 was read as HNF4A DNA FP 1.8, RanGTP-Imp inh 5.6, UCH37 inh -5.5 and Ecoli growth 0.71.
Screening COC(=O)C1=C(c2ccc(OC(F)(F)F)cc2)C[C@@H]2CC[C@H]1N2C(=O)NC1CC1 returned HNF4A DNA FP -2.1, FGF22 binding inactive, UCH37 inh -1.0 and MLL AF4-AF9 inh 5.0.
CC(=O)NCC1=C(c2ccc3ccccc3c2)C[C@@H]2CC[C@H]1N2Cc1ccco1 was read as Vif TR-FRET -7%, HNF4A DNA FP -7.8, FGF22 binding inactive and MLL AF4-AF9 inh 2.5.
For COc1ccc(CN2C(=O)NC(=O)/C(=C\c3cc(OC)c(OC)c(OC)c3)C2=O)cc1 the results were Vif TR-FRET -9%, HNF4A DNA FP 5.5, FGF22 binding inactive, RanGTP-Imp inh -0.2, UCH37 inh 7.0, MLL AF4-AF9 inh -2.2 and Ecoli growth 0.68.
CCCCn1c(O)c(C(CC)=NCc2ccco2)c(=O)[nH]c1=O was read as Vif TR-FRET 29%, HNF4A DNA FP 0.3, RanGTP-Imp inh inconclusive, UCH37 inh 2.6 and Ecoli growth 0.74.
COC(=O)C1=C(c2ccc(-c3ccccc3)c(F)c2)C[C@@H]2CC[C@H]1N2C(=O)NCC1CC1 was read as HNF4A DNA FP 0.8, FGF22 binding inactive, UCH37 inh 1.5 and MLL AF4-AF9 inh 3.4.
`COc1ccc(N2C(=O)NC(=O)/C(=C/c3ccc(N4CCOCC4)cc3)C2=O)cc1` gave FGF22 binding inactive, RanGTP-Imp inh 3.6, UCH37 inh 0.8, MLL AF4-AF9 inh -0.8 and Ecoli growth 0.62.
Screening CCCCn1c(O)c(C(C)=NCCCn2ccnc2)c(=O)[nH]c1=O returned Vif TR-FRET 1%, HNF4A DNA FP 6.0, RanGTP-Imp inh -3.7, UCH37 inh -0.8 and Ecoli growth 0.66.
COC(=O)C1=C(c2cccc(OCc3ccccc3)c2)C[C@@H]2CC[C@H]1N2C(=O)NCc1ccccc1 was read as HNF4A DNA FP 3.9, FGF22 binding inactive, UCH37 inh 1.3 and MLL AF4-AF9 inh -3.3.
`CC(=NCC1CCCO1)c1c(O)n(C)c(=O)n(C)c1=O` (stereo unspecified) gave Vif TR-FRET 0%, HNF4A DNA FP 8.7, RanGTP-Imp inh -3.5, UCH37 inh 5.8 and Ecoli growth 0.69.
`CCC(c1nnnn1C(C)(C)C)N1CCC2(CC1)C(=O)NCN2c1ccccc1` (stereo unspecified) gave HNF4A DNA FP 1.2, FGF22 binding inactive and MLL AF4-AF9 inh 5.9.
CCCCOc1ccc(CN2CCN(CCO)CC2)cc1 was read as Vif TR-FRET -1%, HNF4A DNA FP -1.2, RanGTP-Imp inh 5.3, UCH37 inh 2.1 and Ecoli growth 0.75.
`N#CC(C#N)=Cc1ccc(-c2ccccc2F)o1` gave HNF4A DNA FP -0.3, FGF22 binding inactive, UCH37 inh 1.7, MLL AF4-AF9 inh -3.6 and Ecoli growth 0.7.
CN(C)C(=O)Oc1noc2cc(Cl)ccc12 was read as Vif TR-FRET -7%, HNF4A DNA FP -2.2, RanGTP-Imp inh -1.6, UCH37 inh 1.5, MLL AF4-AF9 inh 0.2 and Ecoli growth 0.65.

Random excerpt: two records from the list.
`N#CC(C#N)=Cc1ccc(-c2ccccc2F)o1` gave HNF4A DNA FP -0.3, FGF22 binding inactive, UCH37 inh 1.7, MLL AF4-AF9 inh -3.6 and Ecoli growth 0.7.
CN(C)C(=O)Oc1noc2cc(Cl)ccc12 was read as Vif TR-FRET -7%, HNF4A DNA FP -2.2, RanGTP-Imp inh -1.6, UCH37 inh 1.5, MLL AF4-AF9 inh 0.2 and Ecoli growth 0.65.

Not all compounds are listed; the hit share may differ from the screen's.
